VCAM-1 augmentation – enhancers of VCAM-1 display on endothelial cells, imaging, high-content imaging, pooled HUVEC, TNFa stimulus (AID 457) | 0.2% of 10,000 active | Pooled HUVEC, TNFa-induced VCAM-1 immunofluorescence imaging; hits of this screen are not shown here | calls only;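 active = a top-ranked rise in VCAM-1 staining upheld on image or statistical review; inactive = the rest, including candidates rejected on review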;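 note: compounds tested at 5 µM in the well; cells exposed to compound for 24 hours before fixing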
VCAM-1 inhibition – inhibitors of TNFa-induced VCAM-1 surface display, cell-based, plate reader, pooled HUVEC, TNFa stimulus (AID 454); HUVEC TNFa-induced VCAM-1 surface immunofluorescence, plate reader; numbers were filed only for top-ranked candidate wells; inhibition, % at 5 µM; 0.2% of 10,000 active;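 active = compound among top-ranked inhibitors of TNF-induced VCAM-1 adhesion protein staining, with the hit upheld by image or statistical review; inactive = the rest, including hits rejected on review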;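 note: 0% = TNFa with vehicle and 100% = cells without TNFa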
VCAM-1 down imaging – inhibitors of TNFa-induced VCAM-1 surface display, imaging, high-content imaging, pooled HUVEC, TNFa stimulus (AID 456); inhibition, % at 5 µM, or IC50 in µM where a hit was titrated; HUVEC TNFa-induced VCAM-1 surface expression, immunofluorescence imaging; numbers were filed only for top-ranked candidate wells; 0.2% of 10,000 active;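 active = top tenth filtered wells with inhibition above zero that passed visual or statistical confirmation; inactive = the rest, including hits rejected on review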;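 note: 0% = stimulated vehicle wells and 100% = unstimulated cells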
FPRL1 ligand – human FPRL1 ligands by binding competition, primary screen, cell-based, FPR counter-screen, flow cytometry | FPRL1-expressing cells, fluorescent ligand binding inhibition | 0.3% of 24,000 active | inhibition, %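 (tested at 6.7 µM)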 | N-formyl peptide receptor 2 (Homo sapiens), P25090;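 note: 0% = buffer alone and 100% = receptor blocker peptide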
Target sequence (P25090 whole entry, looked up): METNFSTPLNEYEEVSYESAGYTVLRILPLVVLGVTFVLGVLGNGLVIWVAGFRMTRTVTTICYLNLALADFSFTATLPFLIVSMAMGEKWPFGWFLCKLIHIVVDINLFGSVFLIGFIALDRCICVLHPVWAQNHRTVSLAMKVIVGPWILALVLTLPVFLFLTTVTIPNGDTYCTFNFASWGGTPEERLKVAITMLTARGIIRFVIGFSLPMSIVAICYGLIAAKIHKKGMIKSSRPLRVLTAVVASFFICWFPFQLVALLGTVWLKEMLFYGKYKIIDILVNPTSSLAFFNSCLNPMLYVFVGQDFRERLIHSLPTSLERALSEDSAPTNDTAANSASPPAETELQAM
FPR ligand – human FPR ligands by binding competition, primary screen, cell-based, FPRL1 counter-screen, flow cytometry; fMet-Leu-Phe receptor (Homo sapiens), P21462; FPR-expressing cells, fluorescent ligand binding; inhibition, %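 (tested at 6.7 µM)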; 0.74% of 24,000 active; AID 440, 2006;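 note: 0% = buffer wells and 100% = receptor blocker peptide wells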
Target sequence (P21462 whole entry, looked up): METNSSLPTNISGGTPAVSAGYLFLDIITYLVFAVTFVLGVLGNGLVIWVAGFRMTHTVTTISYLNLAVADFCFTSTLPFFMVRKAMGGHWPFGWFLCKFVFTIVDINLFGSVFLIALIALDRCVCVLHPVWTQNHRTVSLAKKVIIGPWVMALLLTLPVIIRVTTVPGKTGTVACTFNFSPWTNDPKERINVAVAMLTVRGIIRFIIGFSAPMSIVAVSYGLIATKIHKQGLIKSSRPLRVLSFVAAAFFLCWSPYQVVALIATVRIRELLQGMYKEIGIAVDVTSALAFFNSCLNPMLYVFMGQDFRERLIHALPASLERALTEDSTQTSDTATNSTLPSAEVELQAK
* marks the source's active call; other numbers are inactive results; i = inactive; ? = inconclusive; . = no result given.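 Rule for the calls, unless noted: active = mean above 30%; inconclusive = self-fluorescent; inactive = the rest.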

No.	Compound	VCAM-1 augmentation	VCAM-1 inhibition	VCAM-1 down imaging	FPRL1 ligand	FPR ligand
1	CCCOc1ccc(C2/C(=C(/O)c3ccccc3)C(=O)C(=O)N2CCCN(C)C)cc1OC (configuration not stated)	.	.	.	-9	-1
2	CCS(=O)(=O)N1CCC(C(=O)NCCC2=CCCCC2)CC1	.	.	.	-3	-4
3	CC#CCCCC(=O)Nc1ccc(C(=O)O)cc1	.	.	.	-8	0
4	O=C(Nc1ccc(Cl)c(Cl)c1)Nc1cc(C(=O)N2CCOCC2)ccc1N1CCCCC1	i	i	i	0	-5
5	O=C1N(CN2CCN(c3cccc(Cl)c3)CC2)c2ccccc2C12OCCCO2	.	.	.	0	-6
6	Cc1ccc2nc(NCCCN3CCOCC3)c(C=NCCCN3CCOCC3)c(=O)n2c1	i	i	i	1	-3
7	CCSc1ccc2nnc(-c3cccc(F)c3)n2n1	.	.	.	-8	2
8	O=C(NCCc1c[nH]c2ccccc12)C(F)(F)C(F)F	.	.	.	-7	2
9	O=c1cc(N2CCOCC2)[nH]c(=O)n1C1CCCCC1	.	.	.	7	6
10	CCOc1ccccc1NC1c2ccccc2C(=O)N1Cc1ccco1 (configuration not stated)	.	.	.	-2	3
11	Cc1noc(/C=C/N(C)C)c1S(=O)(=O)N1CCCC(C(=O)NC2CCCCC2C)C1 (configuration not stated)	.	.	.	-2	-8
12	COC(=O)c1c(O)ccc(Oc2ccccc2)c1C(=O)OC	i	i	i	4	7
13	CCOC(=O)N1CCN(c2c(NC3CCN(Cc4ccccc4)CC3)c(=O)c2=O)CC1	.	.	.	-2	-5
14	COC(=O)CSC1=C(C#N)C(c2cccc(F)c2)CC(=O)N1 (configuration not stated)	.	.	.	1	-1
15	CN(C)c1ccc(C(=O)Nc2nnc(-c3ccc(Cl)cc3)o2)cc1	i	i	i	1	7
16	COc1cc(NC(=O)C2CCCN2S(=O)(=O)c2cccc3cccnc23)cc(OC)c1OC (configuration not stated)	i	i	i	3	8
17	CCc1cc2c(CN3CCN(CCO)CC3)cc(=O)oc2cc1O	i	i	i	3	-9
18	CCn1c(C(=O)N2CCC(C(=O)NCc3ccc4c(c3)OCO4)CC2)cc2sccc21	i	i	i	2	10
19	Cc1cc(Nc2cc(F)ccc2C)n2nc(C)nc2n1	.	.	.	3	-2
20	NC(N)=Nc1nc(CSCC/C(N)=N/S(N)(=O)=O)cs1	i	i	i	-1	-4
21	CCCCOC(=O)CN1C(=O)c2ccc(C(=O)OCCCC)cc2C1=O	i	i	i	1	-1
22	CCCc1cc(-n2ccnc2)n2c(nc3ccccc32)c1C#N	i	i	i	?	?
23	CCn1nnnc1SCC(=O)Nc1nc(-c2cccs2)cs1	i	i	i	-1	10
24	Cc1cc(NC(=O)NC2(C(F)(F)F)Oc3ccc(Cl)cc3O2)no1 (configuration not stated)	.	.	.	8	10
25	CCOC(=O)N1CCN(C(=O)CN2C(=O)COc3ccc(C)cc32)CC1	i	i	i	9	-3
26	CN=C(C)C1=C(O)C(C(=O)OC)C(C)(C)CC1=O (configuration not stated)	i	i	i	1	2
27	COCc1ccc2oc(C(=O)O)cc2c1	.	.	.	6	-4
28	O=C(C1=C(O)C(=O)N(CCN2CCOCC2)C1c1ccncc1)c1ccco1 (configuration not stated)	.	.	.	1	-15
29	COC(=O)c1ccccc1NC(=O)c1noc2c1CCC2	i	i	i	0	2
30	CN(C)S(=O)(=O)c1ccc(C(=O)Nc2ccccc2C(=O)O)cc1	i	i	i	0	-7
31	O=C(CCNS(=O)(=O)c1cccc2nonc12)NCCc1ccc(Cl)cc1	.	.	.	-3	-2
32	COCCCNC(=O)C1CCC(=O)N1Cc1ccccc1Cl (configuration not stated)	.	.	.	2	-8
33	O=C(NCc1cccnc1)c1ccccn1	i	i	i	1	-2
34	COc1ccc(Cl)cc1NC(=O)CSc1nnc(Cn2c(=O)sc3ccccc32)n1C	.	.	.	4	7
35	O=C(CN(C(=O)CCNC(=O)c1ccco1)c1ccccc1)NC1CCCC1	i	i	i	0	-6
36	CCNC(=O)CC(=O)Nc1ccccc1C(=O)O	i	i	i	-1	1
37	COc1ccc(OC)c(CCNC(=O)CS(=O)(=O)Cc2nc(-c3ccc(C)cc3)oc2C)c1	.	.	.	-14	2
38	CCOC(=O)C1C(=O)NC(SCC(=O)Nc2nccs2)=C(C#N)C1c1ccccc1OCC (configuration not stated)	i	i	i	-6	13
39	Cc1cccc(-c2nsc(SCC(=O)Nc3cc(C)on3)n2)c1	.	.	.	-6	-2
40	COc1ccc(-c2nc(N3CCOCC3)nc3n[nH]c(N)c23)cc1	.	.	.	-1	-2

Part of the list above in order of SMILES length, highest first:
No.	Compound	VCAM-1 augmentation	VCAM-1 inhibition	VCAM-1 down imaging	FPRL1 ligand	FPR ligand
38	CCOC(=O)C1C(=O)NC(SCC(=O)Nc2nccs2)=C(C#N)C1c1ccccc1OCC (configuration not stated)	i	i	i	-6	13
40	COc1ccc(-c2nc(N3CCOCC3)nc3n[nH]c(N)c23)cc1	.	.	.	-1	-2
39	Cc1cccc(-c2nsc(SCC(=O)Nc3cc(C)on3)n2)c1	.	.	.	-6	-2
32	COCCCNC(=O)C1CCC(=O)N1Cc1ccccc1Cl (configuration not stated)	.	.	.	2	-8
36	CCNC(=O)CC(=O)Nc1ccccc1C(=O)O	i	i	i	-1	1
33	O=C(NCc1cccnc1)c1ccccn1	i	i	i	1	-2

Single entries from the list:
FPRL1 ligand result of `O=C(NCc1cccnc1)c1ccccn1` is entered as 1
FPR ligand result of `CCNC(=O)CC(=O)Nc1ccccc1C(=O)O` is entered as 1
FPR ligand result of `CCOC(=O)C1C(=O)NC(SCC(=O)Nc2nccs2)=C(C#N)C1c1ccccc1OCC` (configuration not stated) is entered as 13
FPRL1 ligand result of `COc1ccc(-c2nc(N3CCOCC3)nc3n[nH]c(N)c23)cc1` is entered as -1

The results go on.
No.	Compound	VCAM-1 augmentation	VCAM-1 inhibition	VCAM-1 down imaging	FPRL1 ligand	FPR ligand
41	Cc1ccc2cc3cc(C(=O)NCCC(C)C)oc3nc2c1	.	.	.	-3	-3
42	CCOc1ccccc1C1N(c2ccc(OC)cc2)C(=O)C2CCCN21 (configuration not stated)	.	.	.	13	7
43	O=C(Nc1ccc(Cl)c(Cl)c1)N1CCSC1c1ccco1 (configuration not stated)	.	.	.	7	4
44	COc1cc(=O)[nH]c(SCc2c(F)c(F)c(F)c(F)c2F)n1	i	i	i	-4	-4
45	CCOC(=O)C1CCN(C(=O)Nc2ccc3snnc3c2)CC1	i	i	i	-6	-3
46	CCOC(=O)N1CCN(c2cc(NCCC(=O)O)c3c4c(onc24)-c2ccccc2C3=O)CC1	.	.	.	61*	32*
47	Cc1ccccc1OCCCN1C(=O)C(=O)c2cccc(C)c21	i	i	i	6	-10
48	O=C(Nc1ccc(Cl)cc1)c1ccsn1	.	.	.	2	0
49	CC(C)(C)C(=O)OCCn1c(=O)c2cc3c(=O)n(CCOC(=O)C(C)(C)C)c(=O)c3cc2c1=O	.	.	.	-3	-4
50	O=C(C1CC1)N1CCc2cc(Br)cc(S(=O)(=O)NCc3ccc4c(c3)OCO4)c21	.	.	.	-4	6
51	COCCN(CCOC)S(=O)(=O)c1ccc(C(=O)Nc2nnc(C)o2)cc1	.	.	.	4	2
52	COc1cc(-n2c(=O)c3ccccc3n(Cc3cccnc3)c2=O)cc(OC)c1OC	.	.	.	-2	3
53	CCOc1ccc(-c2nnn(CC(=O)N3CCN(c4ccc(F)cc4)CC3)n2)cc1OCC	i	i	i	-2	-5
54	COc1cc(S(=O)(=O)N2CCC(N3CCCCC3)CC2)ccc1-n1cnnn1	i	i	i	5	-3
55	C=CCc1ccccc1OCC(O)CN1CCN(C(=O)OCC)CC1 (configuration not stated)	.	.	.	-6	-1
56	Cc1ccc(C)c(N2CCN(C(=O)CCc3nc4ccccc4[nH]3)CC2)c1	.	.	.	-3	2
57	COc1ccccc1CNC(=O)CNC(=O)Cn1cnc2ccccc2c1=O	.	.	.	-2	-6
58	CCOc1ccc(S(=O)(=O)N2CCC(C(N)=O)CC2)c2ccccc12	.	.	.	-11	-8
59	CSc1ccc(/C=N/n2nnnc2N)cc1	.	.	.	7	0
60	CC(C)(C)OC(=O)N1CC(O)CC1C(=O)OCC(=O)c1ccc(Cl)cc1 (configuration not stated)	i	i	i	-3	-1

Single records (already shown).
COc1ccccc1CNC(=O)CNC(=O)Cn1cnc2ccccc2c1=O across the screens: VCAM-1 augmentation: .; VCAM-1 inhibition: .; VCAM-1 down imaging: .; FPRL1 ligand: -2; FPR ligand: -6
CCOc1ccc(-c2nnn(CC(=O)N3CCN(c4ccc(F)cc4)CC3)n2)cc1OCC across the screens: VCAM-1 augmentation: i; VCAM-1 inhibition: i; VCAM-1 down imaging: i; FPRL1 ligand: -2; FPR ligand: -5

Next results follow.
No.	Compound	VCAM-1 augmentation	VCAM-1 inhibition	VCAM-1 down imaging	FPRL1 ligand	FPR ligand
61	Cc1ccc(/C=c2\sc3nc(-c4cccnc4)nn3c2=O)cc1	.	.	.	-3	19
62	CCSc1nncn1/N=C/c1ccc(OC)c(OC)c1	i	i	i	5	-1
63	CC(=O)c1ccc(Nc2cc(C)nc3nc(C)nn23)cc1	.	.	.	11	5
64	CCOC(=O)N1CCN(S(=O)(=O)c2cc3c(cc2C)NC(=O)CO3)CC1	.	.	.	-1	8
65	Cn1c(=O)c2cc(S(=O)(=O)NCCC(=O)NCCC3=CCCCC3)ccc2n(C)c1=O	.	.	.	6	-3
66	COc1cccc(OC)c1C(=O)Nc1cccc(C(C)=O)c1	i	i	i	-4	3
67	Cc1nc(SCC#N)c2c(C)c(C)sc2n1	i	i	i	6	20
68	NC(=O)c1oc2ccc(Cl)cc2c1NC(=O)CN1CCOCC1	i	i	i	-2	-1
69	COCC(C)NC(=O)c1cc(-c2ccc(O)cc2)on1 (configuration not stated)	.	.	.	-1	-5
70	O=C(CCCCn1c(=O)c2ccccc2n(Cc2ccc(F)cc2Cl)c1=O)NCc1ccco1	.	.	.	-6	12
71	CCCCCOC(=O)CSc1nnc(-c2cc(OC)c(OC)c(OC)c2)o1	i	i	i	6	5
72	COc1ccccc1-n1c(C)nnc1SCC(N)=O	i	i	i	3	0
73	O=c1[nH]cnc2nc(-c3ccccc3)c(-c3ccccc3)nc12	.	.	.	0	3
74	COc1ccccc1/C=c1\sc2nc(-c3ccco3)nn2c1=O	.	.	.	-5	11
75	CC(C)(C)n1nc2c(c1NC(=O)c1cccc(C(F)(F)F)c1)CS(=O)C2 (configuration not stated)	.	.	.	10	8
76	CC(=O)Nc1ccc(N2S(=O)(=O)c3ccccc3S2(=O)=O)cc1	.	.	.	4	0
77	COc1ccc(-n2c(Cc3cccn3C)nnc2SCC(=O)NCc2ccco2)cc1	.	.	.	2	3
78	OC1(C(F)(F)F)CC(O)(C(F)(F)F)n2nc(-c3ccccc3)cc2N1 (configuration not stated)	.	.	.	6	0
79	O=C(Cc1c(F)cccc1Cl)Nc1ccncc1	i	i	i	9	9
80	CC(C)(C)C1CCc2onc(C(=O)NC3CCCC3)c2C1 (configuration not stated)	.	.	.	5	4
81	O=C(CCN1C(=O)c2ccccc2C1=O)NCCN1CCOCC1	i	i	i	3	-4
82	CC1CCN(C(=O)CSc2nnc(-c3ccc(S(=O)(=O)N4CCOCC4)cc3)n2C)CC1	i	i	i	-1	-4
83	CCOC(=O)N1CCC(NC(=O)C2CCN(S(=O)(=O)c3cccc4cccnc34)CC2)CC1	i	i	i	3	10

High-throughput results as filed in PubChem.

These rows are one share of the data (hit frequency here may not be typical).
